# Rce1 inh: yeast Rce1p protease inhibitors, primary screen, biochemical, fluorescence, cell-free homogeneous. CAAX prenyl protease 2 (Saccharomyces cerevisiae (strain ATCC 204508 / S288c)), Q03530. yeast membranes, quenched prenylated peptide cleavage fluorescence. calls only. 290,000 tested, 0.27% active;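 active means fall in fluorescence gain of 50% or more versus controls, with final raw signal at or below 3038400; inconclusive means same 50% fall but final raw signal above 3038400; inactive means fall in fluorescence gain under 50%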;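 further: plate controls were neutral control wells for no effect and wells lacking membranes for full effect; tested at 10 µM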
# Target sequence (Q03530 whole entry, looked up): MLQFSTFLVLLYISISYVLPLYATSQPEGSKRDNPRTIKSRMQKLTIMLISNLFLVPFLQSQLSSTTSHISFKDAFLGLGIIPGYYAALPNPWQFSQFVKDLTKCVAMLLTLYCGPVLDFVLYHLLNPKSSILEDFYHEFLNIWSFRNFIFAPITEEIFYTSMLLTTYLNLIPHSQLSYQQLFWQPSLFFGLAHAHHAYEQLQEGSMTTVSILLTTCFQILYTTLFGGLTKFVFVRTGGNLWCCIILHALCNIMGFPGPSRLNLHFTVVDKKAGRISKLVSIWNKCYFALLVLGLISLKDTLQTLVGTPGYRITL
# MT1-MMP act inh: blockers of MT1-MMP proenzyme processing, primary screen, HT1080 RFP-PRO-GFP cells, GFP/RFP fluorescence; Matrix metalloproteinase-14 (Homo sapiens), P50281; GFP/RFP ratio fluorescence, overnight; percent of plate control window, DMSO zero; GFP/RFP ratio change, % at 20 µM; 360,000 tested, 0.061% active; AID 651647, 2012;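 active means GFP/RFP ratio change of at least 30% with cell ATP level not reduced by more than half and red fluorescence within 50% of control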; further: strong numbers were not always called active
#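 Assay system: HT1080 RFP-PRO-GFP cells. Benchmarks: DMSO vehicle wells and RFP-L50D-GFP reporter cell wells. Times: overnight cell settling, then overnight compound exposure, 37 °C, 5% CO2. Compound: 20 µM single dose, 1% DMSO. Read-out basis: GFP/RFP fluorescence ratio.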
# Env fusion inh: inhibitors of HIV-1 Env-driven cell-cell fusion, primary screen, HeLa-JRFL effector, CEM21 target cells, luciferase | inhibition, % at 12.3 µM | AID 651610, 2012 | 360,000 tested, 1.1% active;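 active means mean replicate inhibition score of at least 50 and every replicate individually at or above 50; inconclusive means only one of the two criteria met; inactive means mean below 50 and not all replicates reaching 50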;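 further: 0% = plate neutral controls and 100% = maraviroc near 300 nM; one replicate is shown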
# eIF4H inh: human eIF4H binding inhibitors, primary screen, translation initiation inhibitor project, biochemical, uHTS, fluorescence polarization; inhibition, % at 35 µM; Eukaryotic translation initiation factor 4H (Homo sapiens), Q15056; eIF4H fluorescence polarization binding assay; 290,000 tested, 0.94% active; AID 2012, 2009;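 active means 50% or more with normal probe brightness, or confirmed in later tests; inconclusive means above 50% with abnormal brightness, or retests that disagree; inactive means below 50% or failed in later tests; about a fifth of its hits are not listed in these tables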;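 further: calls also rest on retests at 20 µM and on dose response follow-up; 0% = protein and probe with vehicle and 100% = probe without protein; strong numbers were not always called active; many hits fall short of the cut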
# UUG fidelity: modulators of yeast start codon fidelity, primary screen, whole organism, S. cerevisiae, single point, plate reader | S. cerevisiae UUG-firefly luciferase reporter, luminescence/redox ratio | activity score, % at 18.7 µM | 350,000 tested, 0.13% active;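 active means replicate mean at a twofold rise or more, about +100% in these data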;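 further: firefly luciferase made from a UUG start codon reports start codon fidelity; reporter light over untreated wells divided by growth signal over untreated wells; some hits fall short of that in this replicate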
# PABP polyA inh: PABP poly(A) RNA binding inhibitors, primary screen, biochemical, fluorescence polarization, uHTS; inhibition, % at 35 µM; 290,000 tested, 1% active; AID 2014, 2009;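 active means 50% or more with normal probe brightness, or confirmed in later tests; inconclusive means above 50% with abnormal brightness, or retests that disagree; inactive means below 50% or failed in later tests; about a fifth of its hits are not listed in these tables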;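 further: calls also rest on retests at 20 µM and on dose response follow-up; controls were probe without protein and protein plus probe with vehicle; some compounds called inactive have numbers as strong as hits; many hits fall short of the cut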
# Target sequence (P11940 whole entry, looked up): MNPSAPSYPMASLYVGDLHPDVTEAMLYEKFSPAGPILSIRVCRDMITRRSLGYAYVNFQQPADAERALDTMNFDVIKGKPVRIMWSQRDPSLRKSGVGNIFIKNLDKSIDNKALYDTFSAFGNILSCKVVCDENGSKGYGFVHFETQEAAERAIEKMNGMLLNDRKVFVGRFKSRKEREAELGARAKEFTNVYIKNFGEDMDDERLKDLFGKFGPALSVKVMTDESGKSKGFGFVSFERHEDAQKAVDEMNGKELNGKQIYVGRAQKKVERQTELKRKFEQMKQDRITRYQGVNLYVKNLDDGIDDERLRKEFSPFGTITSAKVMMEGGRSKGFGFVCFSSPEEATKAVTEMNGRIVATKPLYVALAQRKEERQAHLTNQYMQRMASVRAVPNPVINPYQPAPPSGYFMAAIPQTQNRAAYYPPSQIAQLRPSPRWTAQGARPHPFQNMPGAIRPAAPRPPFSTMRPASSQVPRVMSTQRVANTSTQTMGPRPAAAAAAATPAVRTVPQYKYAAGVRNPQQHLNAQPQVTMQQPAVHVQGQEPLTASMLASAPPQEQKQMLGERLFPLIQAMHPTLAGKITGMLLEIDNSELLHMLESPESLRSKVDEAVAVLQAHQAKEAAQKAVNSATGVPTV
# CSC inhib: cancer stem cell viability inhibitors, primary screen, luminescence | cancer stem cell-like cells viability | inhibition, % at 7.5 µM | 300,000 tested, 1.1% active;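 active means mean at 75% or more and at least half the replicates too; inconclusive means mean and replicates disagree; tested in HMLE shEcad cells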;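 further: 0% = median of negative and 100% = median of positive control wells; the first replicate is given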
# MT1-MMP act inh RFP: second read-out of MT1-MMP act inh, no call of its own (marks repeat the call); RFP signal change, %; measured here: RFP expression control read;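 0 = vehicle wells; hits needed this value within 50% of zero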
# An asterisk follows results filed as active; i = inactive; ? = inconclusive; . = not tested or not shown.
SMILES,Rce1 inh,MT1-MMP act inh,MT1-MMP act inh RFP,Env fusion inh,eIF4H inh,UUG fidelity,PABP polyA inh,CSC inhib
Cc1cc(C(=O)OCC(=O)Nc2c(Cl)cccc2C(F)(F)F)c(C)o1,i,-4,1,-50,.,6,.,3
Cc1ccc(C(=O)N2CCN(c3ccc(C(F)(F)F)cn3)CC2)o1,.,7,-4,.,.,-4,.,-10
Cc1ccsc1C(=O)N[C@@H](C)c1nnc2ccccn12,i,3,3,-3,0,-19,6,-20
COc1ccc(C2=NOC(C(=O)Nc3cccnc3Cl)C2)cc1 (stereo unspecified),i,1,3,-13,-6,-4,5,-2
COC(=O)c1ccc(CSc2nc3ccccc3c(=O)n2Cc2ccco2)o1,i,-9,-17,.,10,-10,4,20
COc1ccc(NS(=O)(=O)c2cc3c(cc2C)N(C)CCO3)c(OC)c1,i,6,-4,14,-12,-16,-9,-9
O=S(=O)(/N=C(/Nc1ccccn1)c1ccc(Cl)cc1)c1ccc(Cl)cc1,i,2,0,-14,-12,-19,11,-8
CC(C)N(CCCNC(=O)Cn1c(=O)c2cccn2c2ccccc21)Cc1ccccc1,i,2,5,-1,-1,-7,-2,-11
O=C(Cn1cnc2ccccc2c1=O)NNC(=O)c1cccc([N+](=O)[O-])c1,.,5,5,.,.,-5,.,-11
COCCN(C(=O)CCC(=O)Nc1nccs1)C(C(=O)NC(C)(C)C)c1ccc(C)cc1 (stereo unspecified),i,1,3,3,4,-19,-6,-13
CC(=O)Nc1ccc(NC(=O)CN(C)CC(=O)Nc2ccccc2Br)cc1,i,2,2,-5,-12,.,2,4
O=C(COC(=O)c1cccnc1)Nc1cccc2ccccc12,i,5,6,?,-9,-11,1,11
CC1CN(C(=O)c2cccc(C(=O)N3CC(C)OC(C)C3)c2)CC(C)O1 (stereo unspecified),i,-1,1,.,2,-18,-4,-15
N#C/C(=C(/O)c1ccc(Br)s1)c1nc2ccccc2[nH]1,i,-5,-14,-8,0,-22,-18,43
COc1ccccc1NC(CC(=O)c1ccccc1)C(=O)OCC(=O)c1ccc(C)c(C)c1 (stereo unspecified),i,1,2,-69,-4,-13,-10,-4
CCOC(=O)C1CCN(S(=O)(=O)c2ccc(NC(C)=O)c(Cl)c2)CC1,i,-1,-1,3,4,10,2,-8
Cc1ccc(NC(=S)N2CCCC(c3nc4ccc(C)cc4[nH]3)C2)c(C)c1 (stereo unspecified),i,8,-7,1,0,-29,-4,9
CC(C)(C)C(=O)N1CCN(c2ccc3c(c2)C2CC3CCN2C(=O)OCc2ccccc2)CC1 (stereo unspecified),.,3,2,12,.,-1,.,.
COC(=O)c1ccc2cc(OC)c(OC)cc2c1,.,-5,3,-59,.,-11,.,.
CCCCN(CCCC)CCNC(=O)Cc1nc2c(c(=O)[nH]c(=O)n2C)n1C,i,.,.,.,-2,.,-3,.
CCOC(=O)c1c(NC(=O)c2cccnc2)sc(C)c1C,i,-3,-6,.,-5,-13,9,7
O=C(CCN1CCN(Cc2ccccc2)CC1)NNC(=O)Nc1cccc(Cl)c1,i,.,.,1,0,-8,6,3
COc1ccc(NC(=O)CN2CCN(C(=S)NC3CCCC3)CC2)cc1,i,2,10,-9,-16,.,-6,-29
CC(=O)N1CC=CC1(CC(C)C)C(=O)NCc1cc(F)cc(C(F)(F)F)c1 (stereo unspecified),i,7,3,-7,1,-9,2,-3
O=C(Cn1cc(Br)ccc1=O)Nc1ccc2c(c1)OCO2,.,-1,4,-32,.,-18,.,0
CC1CCCCN1CC(O)COCCC12CC3CC(CC(C3)C1)C2 (stereo unspecified),i,2,-3,32,-3,23,-2,69
CC12CCC(=O)C=C1CCC1C2C(O)CC2(C)C1CCC2(O)C(=O)CO (stereo unspecified),i,0,5,i,0,-38,-2,-4
Cc1cc(C)nc(NS(=O)(=O)c2ccc(NC(=O)c3ccco3)cc2)n1,i,4,6,.,-2,-11,-4,-14
COc1cccc(C2C(C#N)=C(N)N(N(C)C)C3=C2C(=O)CC(C)(C)C3)c1 (stereo unspecified),i,3,2,0,-5,.,2,1
COc1cc(CCC(=O)OCC(=O)Nc2ncc(Cl)cc2Cl)cc(OC)c1OC,i,-3,2,.,41,-9,32,1
COc1nc(N/N=C/c2ccc(-c3cccc([N+](=O)[O-])c3)o2)nc(N2CCOCC2)n1,i,.,.,.,22,.,-3,.
Cc1cc(=O)n(C2CCS(=O)(=O)C2)[nH]1 (stereo unspecified),i,6,4,24,-8,.,3,22
Cc1cccc(CSc2nc3nc(C)cc(C)n3n2)c1,i,-4,-1,-1,-6,.,6,-24
Cc1cc(C(F)(F)F)nn1Cc1n[nH]c(=S)n1-c1ccc(Cl)cc1,i,0,1,-29,2,7,11,.
CCCCc1nc2cc(C(=O)N3CCCCC3COC)ccc2o1 (stereo unspecified),i,0,2,.,0,-8,-1,-20
C=C1C(C(=O)Nc2cccc(OC)c2)C1C(=O)Nc1cccc(OC)c1 (stereo unspecified),i,0,0,7,-4,-11,3,4
CCc1ccc(-c2csc(NC(=O)Oc3ccccc3)n2)cc1,i,-3,-7,-8,-13,.,1,-8
CCC(C(=O)Nc1nc(C)c(C(=O)OC)s1)c1ccccc1 (stereo unspecified),i,4,1,7,-3,-19,-14,7
Cc1cc(C(=O)N2CCN(c3ncccc3C#N)CC2)no1,i,5,3,6,-2,.,2,-14
COc1ccc(/C=C/C2=CC(C)(C)NC(=S)N2)cc1,i,-4,-6,-23,-1,.,3,-6
COc1ccc(-n2nnnc2SCC(=O)c2ccc3c(c2)OCCO3)cc1,i,-4,3,.,-6,-11,-15,.
CCOc1ccc(CNC(=S)Nc2ccccc2)cc1Cl,i,4,-9,-10,1,-38,6,-7
C=CCNC(=O)C1CC(=O)N(c2ccc(OCC(=O)Nc3ccc(Cl)cc3)cc2)C1 (stereo unspecified),i,1,-5,4,-10,-8,-2,1
CN(C(=O)COC(=O)/C=C/c1cn(-c2ccccc2)nc1-c1ccc2c(c1)OCCO2)C1CCS(=O)(=O)C1 (stereo unspecified),i,-6,-5,18,1,.,16,-4
CC(C(=O)O)c1ccc(N2Cc3ccccc3C2=O)cc1 (stereo unspecified),i,2,0,-123,-3,-53,19,21
CC1=CC(c2ccccc2)n2nc(N)nc2N1 (stereo unspecified),i,3,4,-21,.,-12,.,-8
O=C(CCC1CCN(C(=O)Cc2c(F)cccc2F)CC1)NC1CC1,i,-4,2,-5,.,-16,.,6
COc1cc(OC)cc(C(=O)NCCNC(=O)c2ccco2)c1,i,1,1,.,6,-14,4,12
COc1cc(OC)cc(C(=O)N[C@H](C(=O)Nc2ccc(S(=O)(=O)N(C)C)cc2)C(C)C)c1,i,-5,-8,0,-1,.,24,7
CCn1c2ccccc2c2nnc(SCC(=O)Nc3cc(C)on3)nc21,i,-1,2,.,2,-20,10,-5
O=C(CNC(=O)c1ccc(Oc2ccccc2)cc1)OCc1ccc(Br)cc1,i,6,1,12,0,.,-4,0
COC(=O)c1c(NC(=S)NN2CCOCC2)sc2c1CCCC2,i,-6,-8,-4,0,-13,1,-9
COc1ccc(NC(=O)c2ccccc2NC(=O)CN2CCCCCC2)cc1,.,-1,-2,4,.,-13,.,.
Cc1sc(NC(=O)C2=COCCO2)nc1-c1ccc(F)cc1,i,3,-5,.,.,-10,.,-2
COc1ccccc1N(C)S(=O)(=O)c1ccc(C(=O)N2CCC2)cc1,.,-2,0,2,.,-5,.,.
CC(OC(=O)C1=COCCO1)C(=O)Nc1ncc(Cl)cc1Cl (stereo unspecified),.,0,-3,-13,.,7,.,.
CCOc1ccc(C(=O)CCNC(Cc2cnc[nH]2)C(=O)O)cc1 (stereo unspecified),i,-5,-3,.,2,-20,-1,.
CCO[C@H]1OC(C(=O)N2CCCCCCC2)=C[C@@H](c2ccc(C(F)(F)F)cc2)[C@@H]1CCCO,i,-11,-10,0,-11,-10,1,-11
Cc1ccc(CNC(=O)CN(c2ccc(C)cc2)S(=O)(=O)c2c(C)nn(C)c2C)cc1,i,0,2,14,-1,-16,1,-13
CCc1c(C)[nH]c2ccc(C)cc2c1=O,i,4,1,-8,-5,-13,8,-8

# Continued, starting with the last 2 of the part before.
SMILES,Rce1 inh,MT1-MMP act inh,MT1-MMP act inh RFP,Env fusion inh,eIF4H inh,UUG fidelity,PABP polyA inh,CSC inhib
Cc1ccc(CNC(=O)CN(c2ccc(C)cc2)S(=O)(=O)c2c(C)nn(C)c2C)cc1,i,0,2,14,-1,-16,1,-13
CCc1c(C)[nH]c2ccc(C)cc2c1=O,i,4,1,-8,-5,-13,8,-8
COc1cc(NC(=O)Cn2cnc(S(=O)(=O)N3CCOCC3)c2)cc(OC)c1OC,i,-2,1,-3,-16,1,-8,-11
O=Nc1c2ccc[nH]c-2c2ccc([N+](=O)[O-])cc12,.,-5,-7,-43,1,.,-12,18
COc1cc(/C=N/N2CCN(C3c4ccccc4-c4ccccc43)CC2)cc(OC)c1OC,i,-7,-9,-6,-13,.,-4,51
COc1cc(/C(C)=N/N2CCN(Cc3ccc(C)cc3)CC2)ccc1O,i,-1,-1,14,11,-6,-1,-14
CSc1ccccc1C(=O)NCCSc1ccc(C)cc1,i,2,-1,9,-14,-17,-5,6
CC1CN(C(=S)NC(=O)c2ccc([N+](=O)[O-])cc2)CC(C)O1 (stereo unspecified),i,2,-1,.,-4,-21,3,-6

# By substructure, the entries above with an NH in an aromatic ring.
SMILES,Rce1 inh,MT1-MMP act inh,MT1-MMP act inh RFP,Env fusion inh,eIF4H inh,UUG fidelity,PABP polyA inh,CSC inhib
N#C/C(=C(/O)c1ccc(Br)s1)c1nc2ccccc2[nH]1,i,-5,-14,-8,0,-22,-18,43
Cc1ccc(NC(=S)N2CCCC(c3nc4ccc(C)cc4[nH]3)C2)c(C)c1 (stereo unspecified),i,8,-7,1,0,-29,-4,9
CCCCN(CCCC)CCNC(=O)Cc1nc2c(c(=O)[nH]c(=O)n2C)n1C,i,.,.,.,-2,.,-3,.
Cc1cc(=O)n(C2CCS(=O)(=O)C2)[nH]1 (stereo unspecified),i,6,4,24,-8,.,3,22
Cc1cc(C(F)(F)F)nn1Cc1n[nH]c(=S)n1-c1ccc(Cl)cc1,i,0,1,-29,2,7,11,.
CCOc1ccc(C(=O)CCNC(Cc2cnc[nH]2)C(=O)O)cc1 (stereo unspecified),i,-5,-3,.,2,-20,-1,.
CCc1c(C)[nH]c2ccc(C)cc2c1=O,i,4,1,-8,-5,-13,8,-8
O=Nc1c2ccc[nH]c-2c2ccc([N+](=O)[O-])cc12,.,-5,-7,-43,1,.,-12,18

# Source: PubChem BioAssay (several laboratories)
